RecA intein inh: Mtb RecA intein splicing inhibitors, primary screen, biochemical, fluorescence, HTS | Protein RecA (Mycobacterium tuberculosis (strain ATCC 25618 / H37Rv)), P9WHJ3 | cell-free RecA intein splicing | inhibition, %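 (about 9 µM by stock and volumes)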 | 290,000 tested, 0.75% active | AID 2221, 2009; in the data active = inhibition above about 30%; inconclusive = no clear call, values can overlap the other calls;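 also: 0% = vehicle wells and 100% = reference inhibitor control wells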
Target sequence (P9WHJ3 whole entry, looked up): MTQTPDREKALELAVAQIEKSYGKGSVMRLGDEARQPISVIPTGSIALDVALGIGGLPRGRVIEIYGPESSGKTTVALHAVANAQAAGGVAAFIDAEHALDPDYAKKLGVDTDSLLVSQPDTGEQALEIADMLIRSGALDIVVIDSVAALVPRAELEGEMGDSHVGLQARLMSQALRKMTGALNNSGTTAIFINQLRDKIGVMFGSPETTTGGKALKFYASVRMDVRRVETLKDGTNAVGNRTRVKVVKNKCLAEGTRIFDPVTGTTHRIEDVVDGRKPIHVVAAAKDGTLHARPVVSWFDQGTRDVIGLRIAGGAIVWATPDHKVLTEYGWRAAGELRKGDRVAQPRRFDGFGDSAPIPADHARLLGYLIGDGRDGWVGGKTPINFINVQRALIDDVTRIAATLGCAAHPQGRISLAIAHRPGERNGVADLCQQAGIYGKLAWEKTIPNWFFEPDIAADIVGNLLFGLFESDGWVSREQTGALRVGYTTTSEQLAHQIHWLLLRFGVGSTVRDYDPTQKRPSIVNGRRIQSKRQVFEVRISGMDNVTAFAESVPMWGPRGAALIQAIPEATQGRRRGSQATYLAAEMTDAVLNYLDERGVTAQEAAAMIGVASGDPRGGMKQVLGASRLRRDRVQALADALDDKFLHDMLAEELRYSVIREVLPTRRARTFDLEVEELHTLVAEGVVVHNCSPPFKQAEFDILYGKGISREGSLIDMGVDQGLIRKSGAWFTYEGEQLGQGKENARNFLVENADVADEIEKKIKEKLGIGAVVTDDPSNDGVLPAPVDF
Mtb bLac sens: beta-lactam sensitization of Mtb H37Rv, H37Rv; AID 434955, 2010; 330,000 tested, 0.27% active; inhibition, % at 25 µM; M. tuberculosis H37Rv growth with meropenem, percent inhibition; hits of this screen are not shown here;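 active = about 74% or more and at least 40 points above the plate without the antibiotic, then above 30% in a dose series; inconclusive = first-round hits that could not be retested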;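 also: growth measured after seven days incubation then overnight dye step; 0% = bacteria only wells and 100% = bacteria with antibiotic; twin plates without the antibiotic show which effects depend on it; some results filed as inactive read as strong as hits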
Mtb H37Rv: M. tuberculosis H37Rv growth inhibitors, H37Rv strain (AID 1626). M. tuberculosis H37Rv growth inhibition; higher % means a stronger effect. inhibition, % at 10 µM, or IC50 in µM where a hit was titrated. 220,000 tested, 0.95% active;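 active = confirmed in a dose series; inconclusive = inhibition above 80% but not taken into the dose series; inactive = below 80% or under 30% at every dose of the series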;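 also: bacteria incubated seven days before Alamar blue readout; 0% = bacteria only wells and 100% = bacteria with antibiotic wells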
YopH inh: YopH tyrosine phosphatase inhibitors, primary screen, biochemical, fluorescence Ex485/Em525 | 140,000 tested, 0.16% active | inhibition, %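 (about 10 µM by stock and volumes)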 | YopH tyrosine phosphatase [Yersinia enterocolitica];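 active = inhibition of 50% or more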;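 also: controls were vehicle for no effect and minimum signal wells for full effect; inactives centre near -20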
Arbovirus anti: antivirals against arbovirus infection, primary screen, cell-based, full library, 10K replicate subset; arbovirus infection cell-based antiviral screen; inhibition, % at 10 µM; 200,000 tested, 0.37% active; AID 1251, 2008;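 active = inhibition from about 30%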;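 also: bluetongue infection of BSR cells; cell survival read as ATP light after 72 h; 0% = infected wells without compound and 100% = uninfected wells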
Arbovirus anti repeat: second read-out of Arbovirus anti, no call of its own (marks repeat the call); inhibition, %; measured here: 10K subset replicate screen; many hits read low in the repeat;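 first of two repeat runs on a subset; 0% = infected and 100% = uninfected wells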
An asterisk follows results filed as active; ? = inconclusive; . = no result given. This is a subset; count on the stated rates, not on these rows.

SMILES	RecA intein inh	Mtb bLac sens	Mtb H37Rv	YopH inh	Arbovirus anti	others
CCN(CC)c1ccc(/C=N/N2CCN(Cc3ccccc3)CC2)cc1	-2.3	1	-3%	.	9
O=C(COc1ccccc1)N1CCN(C(=O)c2cccs2)CC1	-0.4	0	-4%	-20	2
CCCNC(=O)c1ccc(N2CCC3(CC2)CC(c2cccc(Br)c2)=NO3)c(NC(=O)c2cccc(OC)c2)c1	2.3	-2	.	.	.
Cc1cc(NC(=O)C(C)SCC(=O)OCc2ccc([N+](=O)[O-])cc2)no1 (configuration not stated)	1.1	2	.	.	.
COc1cc(/C=N\NC(=O)c2ccccc2F)ccc1Oc1ccc([N+](=O)[O-])cn1	34*	9	1%	.	.
CCn1c(CCNS(=O)(=O)c2ccccc2Br)nnc1SC	0.1	2	.	.	.
CCOCCCNC(=O)Cn1cc2c(n1)CCCCC2	0.9	?	-9%	-24	-2	Arbovirus anti repeat=-2
CCOc1cc(C(=O)OCc2cccc(OC)c2OC)ccc1OCC(=O)N1CCOCC1	4.6	-11	.	.	.
COC(=O)c1sccc1NC(=O)c1ccc(OC)cc1	3.8	0	-3%	9	8
O=[N+]([O-])c1ccc(N2CCc3ccccc3C2)cc1	9.9	14	.	.	.
CCOc1c2ccc(C(=O)NC3CCCc4ccccc43)cc2nn1CC (configuration not stated)	-1.7	-1	6%	-25	-7
CCOc1cc(C(=O)NC(C)c2ccncc2)cc(OCC)c1OCC (configuration not stated)	1.3	.	-3%	-30	3
Nc1nc(NCC2CCCO2)nc(Nc2cccc(Cl)c2)c1[N+](=O)[O-] (configuration not stated)	-2.2	36	6%	.	.
CCNS(=O)(=O)c1ccc(NC(=O)c2c(-c3ccccc3)noc2C)cc1	4.0	8	1%	.	0
O=C(NNC(=S)Nc1cccc(C(F)(F)F)c1)c1ccc(Cl)cc1Cl	1.5	-16	13%	-20	-5
CCn1c(SCC(N)=O)nc2ccccc2c1=O	0.7	-2	-23%	-24	4
CCOP(=O)(C#CC(C)(C)C)C(O)(c1ccccc1)C(F)(F)F (configuration not stated)	0.5	6	2%	-41	5
Cc1n[nH]c(=S)c2nn(-c3ccccc3F)c(C)c12	-1.3	.	.	-10	8
C=CCN(CC=C)S(=O)(=O)c1ccc(NC(=S)NC(=O)C2CC2)cc1	11	-7	.	.	.
CSc1nnc2c(n1)OC(c1ccccn1)N(C(C)=O)c1ccccc1-2 (configuration not stated)	0.6	-1	0%	.	4
CCOc1ccc(S(=O)(=O)n2cc(F)c(=O)[nH]c2=O)cc1	-1.2	20	9%	.	-1
COc1ccccc1CNC(=O)CN1C(=O)c2ccc([N+](=O)[O-])cc2C1=O	-5.4	-1	.	.	.
CC(=O)Nc1ccc(N2C(=O)c3cccc4c(O)ccc(c34)C2=O)cc1	-8.2	2	.	.	.
CCN1CCN(Cc2ccc(NC(=O)c3ccc(C)c(NC(=O)c4ccc5n[nH]nc5c4)c3)cc2C(F)(F)F)CC1	-2.2	-7	-11%	.	.
CCCNC(=O)c1onc(CSc2ccc(Cl)cc2)c1C(=O)NCC1CC1	6.9	-6	.	.	.

Quoted at random: 6 records from the list
SMILES	RecA intein inh	Mtb bLac sens	Mtb H37Rv	YopH inh	Arbovirus anti	others
O=[N+]([O-])c1ccc(N2CCc3ccccc3C2)cc1	9.9	14	.	.	.
Nc1nc(NCC2CCCO2)nc(Nc2cccc(Cl)c2)c1[N+](=O)[O-] (configuration not stated)	-2.2	36	6%	.	.
COc1ccccc1CNC(=O)CN1C(=O)c2ccc([N+](=O)[O-])cc2C1=O	-5.4	-1	.	.	.
COc1cc(/C=N\NC(=O)c2ccccc2F)ccc1Oc1ccc([N+](=O)[O-])cn1	34*	9	1%	.	.
CCOc1cc(C(=O)OCc2cccc(OC)c2OC)ccc1OCC(=O)N1CCOCC1	4.6	-11	.	.	.
Cc1n[nH]c(=S)c2nn(-c3ccccc3F)c(C)c12	-1.3	.	.	-10	8

A draw from above in order of length of the SMILES, low to high:
SMILES	RecA intein inh	Mtb bLac sens	Mtb H37Rv	YopH inh	Arbovirus anti	others
CCn1c(SCC(N)=O)nc2ccccc2c1=O	0.7	-2	-23%	-24	4
O=C(COc1ccccc1)N1CCN(C(=O)c2cccs2)CC1	-0.4	0	-4%	-20	2
CCN1CCN(Cc2ccc(NC(=O)c3ccc(C)c(NC(=O)c4ccc5n[nH]nc5c4)c3)cc2C(F)(F)F)CC1	-2.2	-7	-11%	.	.

Next section.
SMILES	RecA intein inh	Mtb bLac sens	Mtb H37Rv	YopH inh	Arbovirus anti	others
COc1ccccc1N1CCN(CC(=O)Nc2ccc(-n3cnnn3)cc2)CC1	0.6	-1	-2%	.	8
Cc1ccc(SCC(=O)Nc2nnc(-c3ccco3)o2)cc1	-0.1	8	.	.	.
COc1ccc(-c2cn[nH]c2N)cc1	-1.6	1	3%	-1	0
C=CCSc1ncnc2c1oc1nc3c(cc12)COC(C)(C)C3	0.8	4	2%	.	.
O=C(NCc1ccccc1)C1=C[C@@H](c2ccccc2)C[C@@H](OCc2ccc(CO)cc2)O1	9.2	-4	5%	.	-15
N#Cc1ccc(OCc2nnc(SCC(=O)c3ccccc3)n2-c2ccccc2)cc1	2.3	10	-6%	-31	-1
Cc1ccc(NC(=O)Nc2ccccc2C#N)c(Cl)c1	-0.8	5	7%	-13	-5
C=CCNC(=S)NNC(=O)c1ccc(=O)n(Cc2ccccc2)c1	0.9	-1	4%	.	8
Cc1[nH]c(C)c(S(=O)(=O)N2CCN(c3ccc(Cl)cc3)CC2)c1C(=O)N1CCCC1	0.6	8	.	.	.
C=CCNc1nc(-c2ccc([N+](=O)[O-])cc2)cs1	0.8	12	17%	-25	-9
O=C(OCc1cccc(C(F)(F)F)c1)c1cc([N+](=O)[O-])ccc1N1CCOCC1	9.4	14	.	.	.
COc1cccc(CSc2nnc(-c3ccncc3)n2N)c1	-1.2	?	.	.	.
CCCCNC(=O)NC(C(=O)OC)C12CC3CC(CC(C3)C1)C2 (configuration not stated)	0.9	-8	2%	.	1
O=C(c1cc(-c2ccco2)on1)N1CCOCC1	-4.4	?	-7%	-42	-2
CC(C)(Oc1ccc(Cl)cc1)C(=O)NNC(=O)c1ccc(Br)o1	0.6	-3	.	.	.
O=C(Nc1ccccc1)C1C(c2ccccc2)C1(Cl)Cl (configuration not stated)	7.7	2	.	.	.
CCCCCCCC(=O)NNC(=O)CC(=O)Nc1ccccc1C(=O)O	3.3	3	16%	-44	6

By substructure: those above containing two or more sulfur atoms
SMILES	RecA intein inh	Mtb bLac sens	Mtb H37Rv	YopH inh	Arbovirus anti	others
CCn1c(CCNS(=O)(=O)c2ccccc2Br)nnc1SC	0.1	2	.	.	.
C=CCN(CC=C)S(=O)(=O)c1ccc(NC(=S)NC(=O)C2CC2)cc1	11	-7	.	.	.

Among those listed so far, these have an NH in an aromatic ring.
SMILES	RecA intein inh	Mtb bLac sens	Mtb H37Rv	YopH inh	Arbovirus anti	others
Cc1n[nH]c(=S)c2nn(-c3ccccc3F)c(C)c12	-1.3	.	.	-10	8
CCOc1ccc(S(=O)(=O)n2cc(F)c(=O)[nH]c2=O)cc1	-1.2	20	9%	.	-1
CCN1CCN(Cc2ccc(NC(=O)c3ccc(C)c(NC(=O)c4ccc5n[nH]nc5c4)c3)cc2C(F)(F)F)CC1	-2.2	-7	-11%	.	.
COc1ccc(-c2cn[nH]c2N)cc1	-1.6	1	3%	-1	0
Cc1[nH]c(C)c(S(=O)(=O)N2CCN(c3ccc(Cl)cc3)CC2)c1C(=O)N1CCCC1	0.6	8	.	.	.

Assay outcomes from PubChem BioAssay.
